Source: PubChem BioAssay (Broad Institute)
rRNA inh HTS = reduced GFP signal of wild-type E. coli, primary screen, bacterial rRNA inhibitor project, GFP/RFP fluorescence, OD600, single point | E. coli WT GFP vs humanized-ribosome RFP mutants, 24 h; hits give low values; DMSO median 0, no signal -100 | GFP signal change (wild-type ribosome), % (concentration not given with the values) | 350,000 tested, 1.6% active | AID 720706, 2013;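 active means significant combined selectivity score with lowered wild-type GFP, culture density cut under 30%, mutant RFP and density less affected; inactive means any of these conditions unmet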; further: one replicate is shown; some compounds called inactive have numbers as strong as hits
rRNA inh HTS OD600 = recorded beside rRNA inh HTS, whose call it bears; OD600 change, %; measured here: OD600 growth;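 optical density of the mix in the first replicate; 0 = DMSO median and -100 = no signal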
rRNA inh HTS RFP = further read-out of rRNA inh HTS, marked with its call; RFP signal change, %; measured here: RFP humanized mutant strains;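 first replicate; 0 = DMSO median and -100 = no signal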
* hit, by the source's call; & = joins results of further samples.

SMILES	rRNA inh HTS	rRNA inh HTS OD600	rRNA inh HTS RFP
C[C@H]1CCCCO[C@@H](CN(C)Cc2ccncc2)[C@@H](C)CN([C@@H](C)CO)C(=O)c2cc(NC(=O)Nc3ccc(C(F)(F)F)cc3)ccc2O1	-5	-20	5.5
CCCC#Cc1ccc2c(c1)O[C@@H](CN(C)C(=O)CN(C)C)[C@H](C)CN([C@H](C)CO)S2(=O)=O	1	-1	-0.7
COc1ccc(NC(=O)N[C@@H]2C=C[C@H](CC(=O)NC3CCC3)O[C@H]2CO)cc1	0	3	-1.1
C[C@@H]1CN([C@@H](C)CO)C(=O)c2cc(NC(=O)Nc3ccc(F)cc3)ccc2O[C@@H](C)CCCCO[C@@H]1CN(C)Cc1ccc(C(=O)O)cc1	2	3	0.7
COc1ccc(S(=O)(=O)N(C)C[C@H]2OCCCC[C@@H](C)Oc3ccc(NC(=O)Cc4ccccc4)cc3C(=O)N([C@@H](C)CO)C[C@H]2C)cc1	-1	-2	0.9
Cn1c(=O)c2cc(NC(=O)NCc3ccc(F)cc3)ccc2n1C/C=C/c1ccccc1	2	1	-1.1
C[C@H](CO)N1C[C@H](C)[C@H](CN(C)C(=O)Nc2ccccc2F)Oc2ncc(-c3ccc(F)cc3)cc2C1=O	-2	-3	0.0
C[C@H]1CN([C@@H](C)CO)C(=O)c2cc(C#Cc3ccncc3)cnc2O[C@@H]1CN(C)S(=O)(=O)c1ccccc1F	-7	8	3.8
COc1cccc(S(=O)(=O)N[C@@H]2CC[C@H](CCn3cc(-c4ccccn4)nn3)O[C@@H]2CO)c1	-2	-6	-4.1
C[C@H]1CCCCO[C@H](CN(C)Cc2ccc3c(c2)OCO3)[C@@H](C)CN([C@@H](C)CO)C(=O)c2cc(NS(=O)(=O)c3cn(C)cn3)ccc2O1	5	10	-0.7
Fc1cccc(Cc2c(C3CCCCC3)nc3c4ccccc4ccn23)c1	24	28	2.7
C[C@@H]1CN([C@H](C)CO)C(=O)Cc2cc(NC(=O)C3CCCCC3)ccc2O[C@H]1CN(C)C(=O)Nc1ccc(F)cc1	0	-3	-0.6
C[C@@H]1CN([C@H](C)CO)C(=O)Cc2cc(NS(=O)(=O)c3ccc(F)cc3)ccc2O[C@H]1CN(C)Cc1ccc(-c2ccccc2)cc1	4	-1	-1.4
CN1OC[C@@H]2CN(C(=O)Cc3ccccc3)[C@H](c3ccccc3Br)C[C@@H]21	3	7	0.1
N#C[C@H]1[C@@H](c2ccc(C#Cc3ccccc3F)cc2)[C@H](CO)N1C(=O)C1CC1	-58	-74	-17
Cc1cccc(-c2ccc([C@H]3[C@@H](CO)N4CCCCN(C(=O)c5cccnc5)C[C@H]34)cc2)c1	1	-1	0.2
CCOC(=O)C1=CCC(c2ccco2)N(S(=O)(=O)c2ccc(C)cc2)C1 (stereo unspecified)	-6	-26	-1.8
CCC(=O)Nc1ccc2c(c1)C(=O)N(C)C[C@H](OC)[C@H](C)CN(Cc1cncnc1)[C@@H](C)CO2	-1	2	-2.0
C[C@H](CO)N1C[C@H](C)[C@H](CN(C)Cc2ccc(C(=O)O)cc2)OCCCC[C@H](C)Oc2ccc(NC(=O)c3ccncc3)cc2C1=O	3	3	-0.7
C[C@@H]1CCCCO[C@H](CN(C)C(=O)c2ccccc2)[C@@H](C)CN([C@H](C)CO)C(=O)c2cc(NC(=O)Nc3ccc4c(c3)OCO4)ccc2O1	1	4	-0.6
COc1ccc(CNC(=O)C[C@H]2C[C@H]3c4cc(NC(=O)NC5CCCC5)ccc4O[C@H]3[C@H](CO)O2)cc1	3	4	1.3
Cc1ccc(S(=O)(=O)N2C[C@@H](C)[C@]3(C2)[C@H](O)[C@H](OC(=O)NC2CC2)C[C@H]2C(=O)N(c4ccccc4)C(=O)[C@H]23)cc1	-5	-16	5.4
O=C(NCc1ccc(Cl)cc1Cl)Nc1nc([C@@H]2O[C@H](CO)[C@@H](O)[C@H](O)[C@H]2O)cs1	6	12	1.8
C[C@H]1CN([C@@H](C)CO)C(=O)c2cc(NS(=O)(=O)c3ccc(F)cc3)ccc2O[C@H]1CN(C)C(=O)Nc1ccc2c(c1)OCO2	2	9	-1.3
COCC(=O)Nc1ccc2c(c1)C(=O)N(C)C[C@H](OC)[C@H](C)CN(C(=O)c1cnccn1)[C@H](C)CO2	1	-1	0.2
COCCNC(=O)C[C@@H]1CC[C@H]2[C@@H](COC[C@H](O)CN2S(=O)(=O)c2ccccc2C)O1	0	-7	4.5
CN1[C@H](C(=O)NCCc2ccccc2)[C@@H](CO)[C@@H]2Cn3c(cccc3=O)[C@@H]21	1	6	-3.9
CO[C@H]1CN(C)C(=O)c2ccc(NC(=O)c3ccc4c(c3)OCO4)cc2OC[C@H](C)N(CCC(F)(F)F)C[C@@H]1C	0&-1	3&-3	0.6&1.7
COCC(=O)N(C)C[C@H]1Oc2cc(C#CC(C)(C)O)ccc2S(=O)(=O)N([C@@H](C)CO)C[C@@H]1C	4	4	-4.5
Cc1cc(C(=O)Nc2cccc3c2O[C@@H](CN(C)Cc2ccc4c(c2)OCO4)[C@@H](C)CN([C@@H](C)CO)C3=O)n(C)n1	1	8	0.1
COc1ccc(C2CC=C(C(C)=O)CN2S(=O)(=O)c2ccccc2)cc1 (stereo unspecified)	-2	-3	0.1
CO[C@@H]1CN(C)C(=O)c2ccc(NC(=O)C3CCC3)cc2OC[C@H](C)N(CC2CCCCC2)C[C@@H]1C	2	1	-0.3
CN1OC[C@@H]2CN(C(=O)c3ccc(C#N)cc3)[C@H](c3cccc(Br)c3)C[C@@H]21	22	20	1.3
Cc1ccc(S(=O)(=O)N(C)C[C@H]2OCCCC[C@@H](C)Oc3ccc(NS(=O)(=O)c4cn(C)cn4)cc3C(=O)N([C@@H](C)CO)C[C@H]2C)cc1	-4	-7	1.3
O=C(c1ccccc1)N1C[C@H]2[C@@H](c3ccccc31)[C@@H](CO)N2Cc1ccccc1F	-9	-8	5.7
CCC(=O)N1C[C@@H](C)[C@H](OC)CN(C)C(=O)c2ccc(NC(=O)c3ccccc3)cc2OC[C@@H]1C	-2	-3	0.2
C[C@H]1CN([C@@H](C)CO)C(=O)c2cccc(NC(=O)c3nc4ccccc4s3)c2O[C@H]1CN(C)S(=O)(=O)c1cn(C)cn1	-6	-15	1.9
CC(C)CC#Cc1cnc2c(c1)C(=O)N([C@H](C)CO)C[C@@H](C)[C@H](CN(C)Cc1ccccc1)O2	-5	-29	18
C[C@@H]1CN([C@H](C)CO)C(=O)c2cccc(NS(C)(=O)=O)c2O[C@H]1CN(C)Cc1ccc(Cl)c(Cl)c1	-8	-13	-1.8
C[C@@H]1CCCCO[C@H](CN(C)C(=O)Nc2ccc(F)cc2)[C@@H](C)CN([C@@H](C)CO)C(=O)c2cc(NS(=O)(=O)c3cn(C)cn3)ccc2O1	5	2	-0.1
CC=Cc1ccc2n(c1=O)C[C@@H]1[C@@H](CO)[C@H](C(=O)N[C@H](C)c3ccccc3)N(C(=O)c3ccccn3)[C@H]21 (mixture of isomers)	-2	5	2.9
C[C@@H]1CN([C@@H](C)CO)C(=O)c2cc(NS(C)(=O)=O)ccc2O[C@@H]1CN(C)Cc1ccccc1	5	13	-4.4
COc1ccc(NC(=O)N2CCCCN3[C@@H](CO)[C@H](c4ccc(-c5ccccc5C)cc4)[C@@H]3C2)cc1	-60	-68	-12
N#C[C@H]1[C@H](c2ccc(C#Cc3cccnc3)cc2)[C@@H](CO)N1C(=O)NC1CCCC1	-5	-5	3.2
O=C(NC1CCCCC1)N1CC(=O)N2[C@H](C1)[C@H](c1ccc(/C=C/c3ccccc3)cc1)[C@@H]2CO	5	-41	22
CCCCCCCCN1C(=O)[C@H](CC(=O)NCc2cccc(C(F)(F)F)c2)C[C@@]2(C(=O)OCC)CCC=C12	2	3	1.7
O=C(C[C@H]1C[C@H]2c3cc(NC(=O)C4CCC4)ccc3O[C@H]2[C@@H](CO)O1)NCc1ccccc1	2	0	0.1
COc1ccc(-c2c(C(=O)c3ccccc3)[nH]c(N)c2C(=O)NCc2ccccc2)cc1OC	-36*	-22*	-6.6*
C[C@@H]1CN([C@H](C)CO)C(=O)Cc2cc(NC(=O)CCC(F)(F)F)ccc2O[C@H]1CN(C)C(=O)Nc1ccc2c(c1)OCO2	3	7	1.6
O=C(C1CCOCC1)N1CC2(C1)[C@H](c1ccccc1)[C@@H](CO)N2Cc1ccc(Cl)cc1	5	4	0.4
Additional records follow:
SMILES	rRNA inh HTS	rRNA inh HTS OD600	rRNA inh HTS RFP
OCC1OC(n2ccc3c2ncn2ncnc32)C(O)C1O (stereo unspecified)	22	22	-1.8
CCOc1ccc(NC(=O)CN(C)C(=O)CCCNC(=O)c2ccc(Cl)cc2)cc1OCC	2	2	3.9
C[C@H]1CN([C@@H](C)CO)C(=O)c2cc(NC(=O)Nc3ccc(C(F)(F)F)cc3)ccc2O[C@H]1CN(C)Cc1ccc(C(=O)Nc2ccccc2N)cc1	1	-3	3.9
C[C@@H]1CCCCO[C@@H](CN(C)Cc2ccccc2)[C@H](C)CN([C@H](C)CO)C(=O)c2cc(NS(=O)(=O)c3cn(C)cn3)ccc2O1	1	5	0.4
CC(C)C#Cc1ccc2c(c1)O[C@@H](CN(C)C(=O)CN(C)C)[C@H](C)CN([C@@H](C)CO)S2(=O)=O	3	-6	-2.6
C[C@H](CO)N1C[C@H](C)[C@H](CN(C)S(=O)(=O)c2ccc(Oc3ccccc3)nc2)OCc2cnnn2CCCC1=O	0&-2	9&-5	-3.2&2.2
C[C@@H]1CN([C@@H](C)CO)C(=O)c2cc(C3=CCCC3)cnc2O[C@H]1CN(C)C(=O)Nc1cccc(F)c1	-7	-9	2.8
C[C@H](CO)N1C[C@H](C)[C@H](CN(C)S(C)(=O)=O)Oc2ccc(NC(=O)CCC(F)(F)F)cc2C1=O	3	2	-2.2
CN(C)C(=O)c1cccc(-c2ccc([C@H]3[C@@H](CO)N4C(=O)CN(C(=O)C5CCCC5)C[C@@H]34)cc2)c1	3	11	0.2
CC(C)NC(=O)Nc1ccc2c(c1)C(=O)N([C@@H](C)CO)C[C@H](C)[C@@H](CN(C)C(=O)CCCN(C)C)OCCCC[C@H](C)O2	2	9	-1.9

A second format for some results above.
Value order – rRNA inh HTS, rRNA inh HTS OD600, rRNA inh HTS RFP
COc1ccc(-c2c(C(=O)c3ccccc3)[nH]c(N)c2C(=O)NCc2ccccc2)cc1OC
  -36*, -22*, -6.6*
C[C@@H]1CN([C@H](C)CO)C(=O)Cc2cc(NC(=O)CCC(F)(F)F)ccc2O[C@H]1CN(C)C(=O)Nc1ccc2c(c1)OCO2
  3, 7, 1.6
O=C(C1CCOCC1)N1CC2(C1)[C@H](c1ccccc1)[C@@H](CO)N2Cc1ccc(Cl)cc1
  5, 4, 0.4
OCC1OC(n2ccc3c2ncn2ncnc32)C(O)C1O (stereo unspecified)
  22, 22, -1.8
CCOc1ccc(NC(=O)CN(C)C(=O)CCCNC(=O)c2ccc(Cl)cc2)cc1OCC
  2, 2, 3.9
C[C@H]1CN([C@@H](C)CO)C(=O)c2cc(NC(=O)Nc3ccc(C(F)(F)F)cc3)ccc2O[C@H]1CN(C)Cc1ccc(C(=O)Nc2ccccc2N)cc1
  1, -3, 3.9
C[C@@H]1CCCCO[C@@H](CN(C)Cc2ccccc2)[C@H](C)CN([C@H](C)CO)C(=O)c2cc(NS(=O)(=O)c3cn(C)cn3)ccc2O1
  1, 5, 0.4
CC(C)C#Cc1ccc2c(c1)O[C@@H](CN(C)C(=O)CN(C)C)[C@H](C)CN([C@@H](C)CO)S2(=O)=O
  3, -6, -2.6
C[C@H](CO)N1C[C@H](C)[C@H](CN(C)S(=O)(=O)c2ccc(Oc3ccccc3)nc2)OCc2cnnn2CCCC1=O
  0&-2, 9&-5, -3.2&2.2
C[C@@H]1CN([C@@H](C)CO)C(=O)c2cc(C3=CCCC3)cnc2O[C@H]1CN(C)C(=O)Nc1cccc(F)c1
  -7, -9, 2.8

(listing goes on)
SMILES	rRNA inh HTS	rRNA inh HTS OD600	rRNA inh HTS RFP
COc1cccc(NC(=O)N(C)C[C@@H]2Oc3ncc(C#Cc4ccncc4)cc3C(=O)N([C@H](C)CO)C[C@H]2C)c1	-1	-1	-0.8
COCC#Cc1ccc2c(c1)O[C@H](CN(C)Cc1ccccc1F)[C@H](C)CN([C@H](C)CO)S2(=O)=O	0	-18	-1.5
CC(=O)C1=C(C)N(Cc2ccc(F)cc2)C(=S)NC1c1ccc(Br)cc1 (stereo unspecified)	-4	-7	11
COCCCNc1ccn2nc(-c3cccc(Cl)c3)cc2n1	-12	-13	-2.5
O=C(c1ccc(F)cc1)N1CCCCN2[C@H](CO)[C@H](c3ccc(/C=C/c4ccccc4)cc3)[C@H]2C1	-57	-62	-15
CO[C@H]1CN(C)C(=O)c2cc(NC(C)=O)ccc2OC[C@H](C)N(Cc2ccncc2)C[C@H]1C	3	9	-0.5
Cc1noc(C)c1NC(=O)N[C@@H]1CC[C@H](CCNC(=O)C2CCCCC2)O[C@@H]1CO	4	3	-0.8
C[C@@H]1CN([C@H](C)CO)C(=O)Cc2cc(NC(=O)Nc3ccccc3)ccc2O[C@@H]1CN(C)CC1CCCCC1	4	-20	3.4
CC(C)NC(=O)N(C)C[C@@H]1Oc2ccc(NS(=O)(=O)c3ccccc3)cc2C(=O)N([C@@H](C)CO)C[C@@H]1C	9	4	-1.2
Cc1ccccc1S(=O)(=O)N1CC(=O)N2[C@H](C1)[C@@H](c1ccc(C#CCC(C)C)cc1)[C@@H]2CO	2	1	0.2
CO[C@@H]1CN(C)C(=O)c2cc(NC(=O)C3CC3)ccc2OC[C@H](C)N(CCC(F)(F)F)C[C@H]1C	-4	-7	3.1
Cc1cccc(-c2ccc([C@H]3[C@@H](CO)N4CCCCN(Cc5cncnc5)C[C@@H]34)cc2)c1	2	7	-1.2
CC(C)NC(=O)N(C)C[C@H]1Oc2ccc(NC(=O)CCCCCC(=O)Nc3ccccc3N)cc2C(=O)N([C@H](C)CO)C[C@H]1C	-1	6	-2.0

A portion of the library; the hit share may differ from the screen's.
